NPR1 antag = blocks ANP-stimulated signaling of human Npr1 receptor; 76,000 compounds, 1.6% hits; Potency, µM (series often up to 46.3 µM), for the others: top-dose activity change, negative = inhibition, usual class: inhibitors; HEK293 hNpr1 GloSensor cGMP, ANP-stimulated luminescence; P16066; active = well fitted inhibition curve with a large enough effect; inconclusive = small, poorly fitted or top-dose-only effect; inactive = no such curve, though single readings can be large or run the other way;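 also: nearly all actives have a fitted effect of over 60% in size; nearly all hits also lower the signal before the agonist is added; a reference antagonist and vehicle were the controls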
Target sequence (P16066 whole entry, looked up): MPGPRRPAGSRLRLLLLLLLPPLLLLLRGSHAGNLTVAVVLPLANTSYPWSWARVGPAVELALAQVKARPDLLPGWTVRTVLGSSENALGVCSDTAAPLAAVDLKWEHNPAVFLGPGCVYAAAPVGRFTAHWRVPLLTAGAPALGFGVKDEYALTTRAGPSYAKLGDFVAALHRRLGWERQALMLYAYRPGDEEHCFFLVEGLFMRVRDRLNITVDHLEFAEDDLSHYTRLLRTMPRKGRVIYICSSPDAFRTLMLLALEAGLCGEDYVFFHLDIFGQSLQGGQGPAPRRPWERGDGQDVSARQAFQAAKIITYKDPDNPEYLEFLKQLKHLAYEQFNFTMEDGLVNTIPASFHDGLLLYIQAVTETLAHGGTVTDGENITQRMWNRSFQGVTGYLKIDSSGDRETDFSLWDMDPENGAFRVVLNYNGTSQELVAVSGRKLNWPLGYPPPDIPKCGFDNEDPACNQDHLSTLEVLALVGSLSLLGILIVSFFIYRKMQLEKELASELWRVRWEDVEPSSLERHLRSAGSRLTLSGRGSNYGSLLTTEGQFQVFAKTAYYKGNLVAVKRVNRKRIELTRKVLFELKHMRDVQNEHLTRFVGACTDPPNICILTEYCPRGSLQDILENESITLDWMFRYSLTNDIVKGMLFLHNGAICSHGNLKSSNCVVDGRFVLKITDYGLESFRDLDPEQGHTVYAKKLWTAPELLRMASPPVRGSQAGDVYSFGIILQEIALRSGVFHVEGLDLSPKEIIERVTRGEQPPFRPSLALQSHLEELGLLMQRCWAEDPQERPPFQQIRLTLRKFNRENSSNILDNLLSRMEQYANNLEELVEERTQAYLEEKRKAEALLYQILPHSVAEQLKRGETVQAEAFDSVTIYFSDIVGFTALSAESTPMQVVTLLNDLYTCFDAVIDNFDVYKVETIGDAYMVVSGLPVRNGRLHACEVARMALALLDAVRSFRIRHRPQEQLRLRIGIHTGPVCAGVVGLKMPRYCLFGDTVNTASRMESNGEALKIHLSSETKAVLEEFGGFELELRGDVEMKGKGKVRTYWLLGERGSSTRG
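Compound pre-incubated 30 min at room temperature on GloSensor-loaded HEK293 cells stably carrying hNpr1 and the pGS-40F cGMP biosensor. Stimulation uses hNppA at 0.1 nM final; luminescence is taken at baseline and 20 min post-agonist.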
* = called active by the depositor; ? = inconclusive; [ ] = remark or other dose. % is scaled to controls: 0 for no effect and ±100 for the full control effect; potency is read from the fitted curve at half-maximal effect. This is a subset (hit frequency here may not be typical).

A first look (3 entries):
NPR1 antag | structure
8% | CCS(=O)(=O)N1CCC2(CC1)NCCc1c2[nH]c2ccccc12
-3% | Cc1ccc(S(=O)(=O)Nc2ccc(C)n(CC(=O)N3CCOCC3)c2=O)cc1
-1% | O=C(CC1CCCN(c2cnn(CC3CC3)c(=O)c2)C1)Nc1ccccc1F (stereo unspecified)

The whole of this part, repeating the preview:
NPR1 antag | structure
8% | CCS(=O)(=O)N1CCC2(CC1)NCCc1c2[nH]c2ccccc12
-3% | Cc1ccc(S(=O)(=O)Nc2ccc(C)n(CC(=O)N3CCOCC3)c2=O)cc1
-1% | O=C(CC1CCCN(c2cnn(CC3CC3)c(=O)c2)C1)Nc1ccccc1F (stereo unspecified)
-15% | O=C([C@H]1C[C@H](Oc2cccnc2)CN1C(=O)CCCc1ccccc1)N1CCOCC1
4% | NCCn1cc(C(=O)NCCc2noc(-c3ccccc3)n2)nn1
5% | CCn1ccc(C(=O)N2C[C@@H](Oc3ccccc3)C[C@@H]2C(=O)NCCOC)n1
-3% | CC(=O)N1CCN(C(=O)CCc2ccnc(N3CCOCC3)c2)CC1
? | CC1(c2ccccc2)N(Cc2ccccc2C#N)C(=O)OC12CCN(c1ccncc1)CC2 (stereo unspecified)
5%[70.6 µM] | Cn1ccc2c(C(=O)NCc3cnccn3)nc(-c3cccc(N4CCOCC4)c3)cc21
-12% | O=C(NCC1Cn2cccc2C(=O)N1Cc1ccccc1)c1n[nH]c(=O)c2ccccc12 (stereo unspecified)
? | COc1ccc(C(=O)NC2CCCN(c3cc(-c4ccc(Cl)cc4)[nH]n3)C2)c(C)c1 (stereo unspecified)
-2% | Cc1cc(C[C@@H]2COC[C@@H]2NC(=O)c2cccc(Cn3nc(C)cc3C)c2)on1
-3% | Cc1n[nH]c(C)c1CCC(=O)NC1CCCc2c1[nH]c1ccc(F)cc21 (stereo unspecified)
1%[70.6 µM] | O=C(NC1CCCC1)[C@H]1C[C@@H](O)[C@H](O)[C@@H]2N=C(Nc3ccc4c(c3)OCO4)S[C@@H]21
-15%[70.6 µM] | Cc1ccc(CN2CCOC[C@H]2c2ncc(C(C)(C)C)[nH]2)cc1
4% | O=C(CSc1ccccn1)N[C@H]1CCOC[C@H]1C1CCOCC1
7% | O=C(Cn1nc2c(cc1=O)CCCCC2)NCCCN1CCOCC1
1% | Cn1nccc1C(=O)N1CCCC(c2noc(COc3ccccc3F)n2)C1 (stereo unspecified)
-5% | Cc1csc(NC(=O)C2CC(=O)N(c3n[nH]c4cc(Br)ccc34)C2)n1 (stereo unspecified)
-7% | Cc1ccc(C2Cn3nnc(C(=O)N4CCC(C(=O)NCc5cccc(Cl)c5)CC4)c3CO2)cc1 (stereo unspecified)
-1%[70.6 µM] | Cc1ccc(S(=O)(=O)NC[C@H]2OC[C@@H](NC3CCN(C)CC3)[C@@H]2O)cc1
6%[70.6 µM] | c1cnc2nc(C3CCN(CC4CCCCC4)C3)[nH]c2c1 (stereo unspecified)
-15%[70.6 µM] | CN(Cc1ccccc1)C(=O)C1(C)CCCc2cnc(N(C)C)nc21 (stereo unspecified)
-12% | COc1ccc(NC(=O)CCn2ccn3nc4c(c3c2=O)CCCC4)cc1
-14% | O=C(Cc1ccc(Cl)cc1)N1CCCN(c2cc(-c3ccccc3)[nH]n2)CC1
3% | CCC(CC)n1nc(C)cc1NC(=O)CCCn1cnc2ccccc2c1=O
-1% | COc1cccc(CCC(=O)NCc2nnc3ccc(-c4ccccc4)nn23)c1
-10% | COc1cccc(N2CC(C(=O)N3CCC(C(=O)NCCc4ccc(F)cc4)C3)NC2=O)c1 (stereo unspecified)
4% | NC(=O)[C@@H](Cc1ccccc1)NC(=O)[C@@]1(O)C[C@@H](O)[C@H](O)[C@@H](NC(=O)Cc2cccs2)C1
-3% | Cn1c(CNC(=O)CN2CC3CC(C2)[C@H]2CCCC(=O)N2C3)nc2ccccc21 (stereo partly specified)
6% | CNC(=O)N1CCC(C2CCN(S(=O)(=O)c3cnc[nH]3)C2)CC1 (stereo unspecified)
-4% | CC1CCCCN1CCCNC(=O)c1cc2c(s1)CN(C1CCCC1)C2 (stereo unspecified)
3% | COc1cccc(CNC(=O)[C@@H]2C[C@@H](O)CN2C2CCN(C(=O)c3cccc(F)c3)CC2)c1
1% | Cc1cccc(OCC(=O)N2CCC3(CC2)CN(c2ccncn2)CC3CO)c1 (stereo unspecified)
? | COc1ccc(-c2cnc(Nc3ccccc3)c3c2CCO3)cn1
-4% | COc1ccccc1-c1cccc(C(=O)NC(C)Cc2cc(C)[nH]n2)c1 (stereo unspecified)
? | O=C(NCCC1=CCCCC1)c1cc2n(n1)CC(c1ccc3c(c1)OCO3)OC2 (stereo unspecified)
4% | O=C(c1ccc(CN2C(=O)NC3(CCS(=O)(=O)CC3)C2=O)cc1)N1CCSCC1
1% | Cc1nc(C2CCCCN2C(=O)c2ccccc2)n[nH]1 (stereo unspecified)
-1% | CCNC(=O)Cc1ccc(N(Cc2ccccc2)C(=O)c2ccco2)cc1
? | COc1cccc(-c2cc(C3CCN(C(=O)c4cc(C)ccc4C)CC3)[nH]n2)c1
-20% | O=C(c1cccc2[nH]ccc12)N1CCC2(CC1)N=C(c1cccc(Br)c1)NO2
0% | COCCN1CC(CNc2nc(CCN)nc3sc(C)c(C)c23)CC1=O (stereo unspecified)
-8% | Cc1cc(C)n(-c2cccc(CN(C)C(=O)C3CCC(=O)N(Cc4ccccn4)C3)c2)n1 (stereo unspecified)
-5% | Cc1cnc(C(=O)N[C@@H]2CCC[C@@H]2C(=O)NCCCn2cccn2)cn1
1% | CCn1cc(CN2C[C@@H](CO)[C@H](NC(=O)COC)C2)cn1
6%[70.6 µM] | c1ccc(O[C@H]2COCCN(CC3CC3)C2)cc1
1%[70.6 µM] | CCNC(=O)N[C@H]1CO[C@H]2[C@@H]1OC[C@@H]2Nc1nccc(-c2ccc(OC)cc2)n1

2 entries picked at random from the list so far, as already listed:
NPR1 antag | structure
6%[70.6 µM] | c1ccc(O[C@H]2COCCN(CC3CC3)C2)cc1
0% | COCCN1CC(CNc2nc(CCN)nc3sc(C)c(C)c23)CC1=O (stereo unspecified)

Remaining list, next part:
NPR1 antag | structure
? | O=C1c2c(nc(COc3ccc(F)cc3F)n2Cc2ccccc2)NCCN1CCOc1ccccc1
? | COc1ccccc1-c1cccc(COc2ccc3c(cnn3CC[S+](C)(=O)[O-])c2)c1
2% | COc1ccc(CN2C(=O)COC[C@H]2C(=O)N2CCc3ccccc3C2)c(OC)c1
5%[70.6 µM] | COCCN1C[C@H]2CN(C(=O)c3ccc4c(c3)OCO4)CCN2C1=O
-1% | Cc1ccc(C(=O)N2C(C(=O)NC(C)C)COC23CCN(C(=O)c2ccccc2F)CC3)cc1 (stereo unspecified)
1% | COc1ccc(OC)c(CN2CCN(Cc3ccccc3F)C(CCO)C2)c1 (stereo unspecified)
? | CC1Oc2ccc(NC(=O)c3ccc(F)cc3)cc2CN(Cc2ccc3c(c2)OCO3)C1=O (stereo unspecified)
-11% | CCCNC(=O)N1CCC(OC2CCN(S(C)(=O)=O)CC2)CC1
14% | CN(C)c1ccc(C(=O)NC2CCN(c3cnn(C)c(=O)c3)CC2)cc1
-3% | CCN1C(=O)C2CC3(CCN(C(=O)c4nn(C)c5ccccc45)CC3)CN2C1=O (stereo unspecified)
-1%[70.6 µM] | O=C(Nc1ccc(F)c(Cl)c1)C1=NO[C@@H]2CN(CCc3ccccc3)C[C@H]12
-17%[70.6 µM] | CC(C)Cc1cc(C[C@@H]2C[C@H](NC(=O)c3ccco3)C2(C)C)no1
9% | CC(C)OCCCNC(=O)C1CCCN(S(=O)(=O)c2cn(C)cn2)CCC(=O)NCC1 (stereo unspecified)
0% | Cc1ncsc1CCCNc1nc(-c2ccccn2)nc2c1CCNCC2
-9% | COc1ccccc1CC(=O)NCC(=O)N1CCN(c2ccccn2)CC1
1% | O=C1CCCCC(C(=O)NCC2CCCCC2)N1 (stereo unspecified)

Five of the entries above in order of their number in NPR1 antag, lowest first.
NPR1 antag | structure
-9% | COc1ccccc1CC(=O)NCC(=O)N1CCN(c2ccccn2)CC1
-3% | CCN1C(=O)C2CC3(CCN(C(=O)c4nn(C)c5ccccc45)CC3)CN2C1=O (stereo unspecified)
0% | Cc1ncsc1CCCNc1nc(-c2ccccn2)nc2c1CCNCC2
9% | CC(C)OCCCNC(=O)C1CCCN(S(=O)(=O)c2cn(C)cn2)CCC(=O)NCC1 (stereo unspecified)
14% | CN(C)c1ccc(C(=O)NC2CCN(c3cnn(C)c(=O)c3)CC2)cc1

Next part:
NPR1 antag | structure
-2% | CN(C)C[C@H]1O[C@@H](CO)[C@@H](O)[C@H]1N1CCN(c2cccc(C(F)(F)F)c2)CC1
-9% | Cc1ccc(Cn2cc(-c3ccncc3)cc2C(=O)NC2CC2)cc1
-3% | O=C(CCC1CCN(CCCn2cccn2)CC1)NC1CCN(Cc2ccccc2)C1 (stereo unspecified)
4% | COCCN1CCCCCC(O)c2cc(C(=O)N3CCCCCC3)ccc21 (stereo unspecified)
3%[70.6 µM] | O=C(NC[C@H]1COCc2nc3ccccc3n21)c1ccc(Cl)cc1
6%[70.6 µM] | CC(C)(Oc1nn(CCN2CCOCC2)c2ccccc12)C(=O)NCc1ccncc1
-2% | COc1ccc(CN[C@@H]2CCC[C@@H](C(=O)NCc3cc(F)cc(F)c3)CC(=O)N(C)C2)cc1
3% | CC(=O)N1CCC(N2C[C@H](O)C[C@H]2C(=O)NC2CCCCC2)CC1
4% | Cc1noc(C)c1S(=O)(=O)N1CC(c2nnc(C(C)C)o2)C2(CCOCC2)C1 (stereo unspecified)
39%[activator][70.6 µM] | CC(=O)N1CC2(Cc3ccccc3CN2C(C)=O)C1
2% | Cc1noc(C2CC3(CCN(C(=O)c4ocnc4C)CC3)CN2C)n1 (stereo unspecified)
4%[70.6 µM] | CN(C)CC(=O)N1CC[C@H]2COC(=O)N2c2ccccc2C1
4% | O=C(C1CCCCC1)N1CCC(c2noc(CO)n2)C1 (stereo unspecified)
-1% | COCC(=O)N1CCc2nc(N3CCc4ccccc4C3)[nH]c(=O)c2CC1
-22%[70.6 µM] | COC(=O)c1ccc2c(c1)nc1n2[C@@H](CNCc2ccccc2)COC1
-1% | O=C(N[C@@H]1CN(Cc2ccc(CO)o2)CCC[C@H]1O)c1ccc(OCc2ccccc2)cc1
1%[70.6 µM] | Cc1nn(-c2ccc(C(C)C)cc2)c(C)c1[C@@H]1C=C[C@@H](NC(=O)COCC(=O)O)C1
-1% | COc1cccc(CNC(=O)[C@@H]2C[C@@H](O)CN2C2CCN(C(=O)CC3CCCC3)CC2)c1
0% | Cc1nn(C)c(C)c1CCC(=O)N[C@@H]1CN(c2ncccn2)C[C@H]1CO
0% | COc1ccc(-c2cc3nc4c(c(=O)n3[nH]2)CN(C(=O)Cc2ccc(NC(C)=O)cc2)CC4)cc1
-5%[70.6 µM] | Cc1nc(CN2CCOC3(CCN(Cc4ccccc4Cl)CC3)C2=O)cs1
1% | CCCn1nc(C)c(Cn2cc(-c3nccn3C)nn2)c1C
-5% | Cc1nc(N2CCN(Cc3csc(C)n3)CC2)c2sccc2n1
3%[70.6 µM] | Cc1cc(C)c(CNC(=O)c2nc(-c3ccc(F)cc3)cc3c2ccn3C(C)C)c(=O)[nH]1
0% | COCCNC(=O)[C@H]1C[C@H](Oc2cccnc2)CN1S(=O)(=O)c1ccccc1C
-7%[70.6 µM] | COCC(=O)Nc1ccc([C@H]2OCC(=O)N(Cc3cccnc3)[C@@H]2CO)cc1
5% | CC(C)NC(=O)N1[C@@H]2CC[C@H]1CC(NC(=O)c1ccc(F)cc1)C2 (stereo partly specified)
-2% | Cc1ccc(CN2C(=O)[C@@H]3C[C@@H](O)CN3C3(CN(Cc4cccc(OC(F)(F)F)c4)C3)C2=O)o1
-9% | CC(C)[C@H]1CN(Cc2ccccc2C#N)C[C@@H]1NC(=O)C1CCOCC1
2%[70.6 µM] | O=C(NC1CCCCC1)[C@H]1O[C@H](CCN2CCN(Cc3ccccc3)CC2)CC[C@@H]1O
-13% | O=C(NCc1cccs1)c1cc2c(s1)CCN(C(=O)c1ccc(F)cc1)C2
2%[70.6 µM] | O=C1Nc2ccccc2O[C@H]2C[C@@H]1N(Cc1nccs1)C2
-2%[70.6 µM] | Clc1ccccc1CN1CC[C@H](c2nnc(-c3ccccc3)o2)C1
-1%[70.6 µM] | COCC(=O)Nc1ccc(-c2noc([C@@H]3CCCN3Cc3ccc(F)cc3)n2)cn1
-2% | COCC(=O)N1CCC(Oc2nccnc2N2CCOCC2)C1 (stereo unspecified)
0% | Cc1cccc(S(=O)(=O)N2[C@@H]3CC[C@H]2CC(NC(=O)c2ccncc2)C3)c1 (stereo partly specified)
7% | CC(C)Cn1nc2n(c1=O)CCN(S(=O)(=O)c1cc(F)ccc1F)CC2
0% | O=C(CCNc1c(-c2cccc(F)c2)nc2cnccn12)NCc1ccc(Cl)cc1
21% | Cc1cn2nc(C(=O)N3CCN(c4ccccc4F)CC3)cc2c(N2CCCC2)n1
0% | CCNC(=O)N1CCCC(Cc2ncc(C)n2CC2CC2)C1 (stereo unspecified)
3% | O=C(N1CCCC1)C1(CCO)CC12CCOCC2 (stereo unspecified)
0% | CCOCc1nc(C2CCCN(C(=O)c3ccc(OCC)cc3)C2)no1 (stereo unspecified)
-3% | CCNC(=O)Cc1ccc(N(Cc2cccc(F)c2)C(=O)c2ccco2)cc1
-2% | COCCOCC(=O)N1CC(Oc2ccc(-c3nc(C)no3)cc2)C1
-2%[70.6 µM] | CN(Cc1cccn1C)C(=O)c1ccccc1F
-1% | O=C(Nc1ccc(-c2nnc3n2CCCC3)cc1)c1ccc2c(c1)OCO2
5%[70.6 µM] | C=CCO[C@@H]1CCN2C(=O)[C@@H]3C[C@@H](OCC4CC4)CN3C(=O)[C@@H]2C1
1% | O=C(c1ccc2cc[nH]c2c1)N1CCCC(Cc2noc(-c3ccccc3)n2)C1 (stereo unspecified)
